Bioassay records from PubChem.
SARS PLP yeast = inhibitors of SARS-CoV papain-like protease in yeast; S. cerevisiae expressing SARS-CoV PLpro, growth rescue; control for the full effect not named in the record; Potency, µM (highest dose often 32.9 µM), inactives show at the top dose activity, positive = growth rescue; 330,000 compounds, 0.19% hits; AID 485353; note: 0% is about no effect; nearly all actives have a fitted effect of over 55% in size; growth read by luminescence after 48 h
Cruzain Triton = cruzain (T. cruzi) inhibition with detergent | 200,000 compounds, 0.43% hits | purified cruzain, Z-FR-AMC fluorescence, 0.01% Triton | Potency, µM, for the others: max response, negative = inhibition, usual class: inhibitors | P25779; active = well fitted curve in the direction sought with a large enough effect; inconclusive = small, poorly fitted or top-dose-only effect, or another doubt; inactive = no such curve, though single readings can be large; an effect the other way counts as inactive or inconclusive;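 note: plate controls were neutral wells for no effect and buffer without enzyme for full effect; nearly all actives have a fitted effect of over 40% in size; top concentration of the series not given in the record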
Target sequence (P25779 123-467 limits assumed): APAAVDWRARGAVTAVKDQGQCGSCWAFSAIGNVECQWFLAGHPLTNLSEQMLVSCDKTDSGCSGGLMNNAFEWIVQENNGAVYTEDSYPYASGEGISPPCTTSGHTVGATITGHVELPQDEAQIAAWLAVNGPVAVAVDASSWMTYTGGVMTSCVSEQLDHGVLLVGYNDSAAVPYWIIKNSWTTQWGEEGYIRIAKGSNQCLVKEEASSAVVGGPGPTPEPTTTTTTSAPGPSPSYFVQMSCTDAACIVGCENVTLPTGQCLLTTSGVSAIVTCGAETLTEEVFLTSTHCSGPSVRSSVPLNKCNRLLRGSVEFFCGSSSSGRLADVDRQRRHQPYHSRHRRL
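Read-out: AMC fluorescence (360 nm excitation, 450 nm emission), four reads over 2 min, first-to-third difference used. Conditions: cruzain 1.5 nM, Z-FR-AMC 2 uM, pH 5.5 acetate, 5 mM DTT, 0.01% Triton X-100.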
StopGo reporter = lowers the luciferase signal of an FMDV 2A StopGo reporter. Potency, µM (highest dose often 57.9 µM), inactives show at the highest dose signal change, negative = less light. 410,000 compounds, 1.2% hits. human cells with a luciferase reporter of 2A StopGo recoding; control for the full effect not named in the record; active = well fitted falling curve with a large enough effect; inconclusive = small, poorly fitted or top-dose-only effect; inactive = no such curve, though single readings can be large or run the other way; tested in HEK293T cells; note: % is set by controls: 0 for no effect and ±100 for the full control effect; nearly all actives have a fitted effect of over 45% in size; luciferase light after 4 h
Cruzain inh noDet = blocks cruzain activity in detergent-free assay; purified cruzain, Z-FR-AMC fluorescence, no detergent; Potency, µM, for the others: max response, negative = inhibition, usual class: inhibitors; 200,000 compounds, 2.3% hits; active = well fitted curve in the direction sought with a large enough effect; inconclusive = small, poorly fitted or top-dose-only effect, or another doubt; inactive = no such curve, though single readings can be large; an effect the other way counts as inactive or inconclusive;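 note: plate controls were enzyme without inhibitor for no effect and buffer without enzyme for full effect; nearly all actives have a fitted effect of over 40% in size; top concentration of the series not given in the record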
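Detergent-free condition (0.00005% Triton X-100) in acetate buffer pH 5.5 with DTT. 1.5 nM enzyme and compound were pre-mixed 15 min, then 2 uM Z-FR-AMC substrate added; reaction progress from fluorescence change between first and third reads (60 s).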
Marburg entry inh = Marburg virus entry inhibition. Marburg virus pseudotyped entry inhibition, cell reporter; control for the full effect not named in the record; about a third of the inactives were read at about 46 µM. Potency, µM (top dose mostly 37.8 µM), without a hit: at the highest dose activity change, negative = inhibition, most hits filed as inhibitors. 300,000 compounds, 1.8% hits. AID 540276; active = well fitted inhibition curve with a large enough effect; inconclusive = small, poorly fitted or top-dose-only effect, or effect the other way; inactive = flat fitted curve, though single readings scatter; tested in HEK293 cells; about a fifth of its hits are not listed in these tables; note: % is set by controls: 0 for no effect and ±100 for the full control effect; luciferase read-out
NS1 inh = influenza NS1 inhibition; S. cerevisiae slowed by influenza A NS1, growth recovery by OD600; Potency, µM (series often up to 46.1 µM), inactives show at the highest dose activity, positive = more growth; 270,000 compounds, 0.4% hits; AID 2326; note: actives are rising curves; nearly all actives have a fitted effect of over 50% in size
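OD600 was taken as the measure of yeast growth restored by compound in an NS1-expressing S. cerevisiae strain. Cells had been washed out of glucose medium and diluted 1:100 into galactose -URA medium, pH 6.0.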
RE007 growth inh = less growth of the S. pombe RE007 Vpr strain; 360,000 compounds, 0.21% hits; Potency, µM (highest dose often 92.2 µM), for inactives: at the highest dose activity change, negative = less growth; S. pombe RE007 Vpr strain, BacTiter-Glo ATP luminescence, 24 h; control for the full effect not named in the record; active = well fitted falling curve with a large enough effect; inconclusive = small, poorly fitted or top-dose-only effect; inactive = no such curve, though single readings can be large or run the other way;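 note: % is set by controls: 0 for no effect and ±100 for the full control effect; nearly all actives have a fitted effect of over 50% in size; the assay follows cell death caused by Vpr and the record does not say whether a fall means rescue or toxicity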
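Fission yeast strain RE007, carrying one chromosomally integrated HIV-1 vpr copy, was seeded at OD 0.01 in PMG+AL medium with 23 nL pinned compound. After 24 h at 30 °C and 99% humidity, viability was read by BacTiter-Glo luminescence.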
Lassa entry inh = blocks Lassa virus binding to or entry into cells; AID 540256; Lassa virus pseudotype entry inhibition, cell reporter; control for the full effect not named in the record; 300,000 compounds, 1.2% hits; Potency, µM (series often up to 37.9 µM), without a hit: at the top dose activity change, negative = inhibition, hits mostly inhibitors; active means well fitted inhibition curve with a large enough effect; inconclusive means small, poorly fitted or top-dose-only effect, or effect the other way; inactive means flat fitted curve, though single readings scatter; tested in HEK293 cells; note: % is set by controls: 0 for no effect and ±100 for the full control effect; nearly all actives have a fitted effect of over 50% in size; luciferase read-out
Numbers without * were called inactive; ? = inconclusive; / = no result given; & = joins results of further samples; [ ] = remark or other dose. Unless noted, calls come from the whole dose curve; as a rule, active means well fitted rising curve with a large enough effect; inconclusive means small, poorly fitted or top-dose-only effect; inactive means no such curve, though single readings can be large or run the other way. Potency is the fitted concentration of half-maximal effect.

SMILES	SARS PLP yeast	Cruzain Triton	StopGo reporter	Cruzain inh noDet	Marburg entry inh	NS1 inh	RE007 growth inh	Lassa entry inh
O=C(Nc1ccc(S(=O)(=O)NC2=NCCCCC2)cc1)C1COc2ccccc2O1 (stereo not given)	2%	/	-15%	/	/	-7%	6%	/
CCCC1=[N+](CC(=O)c2ccccc2)CCn2cccc21	-10%	-6.5%	-8%	-1%	?	9%	-6%	7%
COc1cccc(-c2csc3nnc(SCC(=O)NCc4cccs4)n23)c1	7%	-6.0%	7%	2%	-6%	-1%	-4%	?
Cc1ccc(NC(=S)NC(CO)C(O)c2ccc([N+](=O)[O-])cc2)cc1 (stereo not given)	-3%	/	-5%	/	1%[46.1 µM]	/	-8%	14%
O=C(NCCCCCCNC(=O)OC1CCS(=O)(=O)C1)OC1CCS(=O)(=O)C1 (stereo not given)	19%	-4.1%	1%	12%	18%[46.1 µM]	-2%	-16%	-8%
CCOc1ccc(C(Nc2ccc(C)cc2)P2(=O)OCC(C)(C)CO2)cc1 (stereo not given)	2%	-2.3%	12%	?	-13%	0%	25%	-16%
O=C(O)CCCCCCCCc1cn(CN2C(=O)c3ccccc3C2=O)nn1	5%	/	-3%	/	/	2%	-9%	/
O=C(c1cccs1)N1C(=O)c2cccc3cccc1c23	0%	/	7%	/	-15%[46.1 µM]	/	2%	18%[46.1 µM]
CC(=O)NCCc1nc2ccccc2n1Cc1cccc(C)c1	0%	/	17%	/	4%	2%	1%	12%
N#CC(/C(=N/S(=O)(=O)c1cccs1)c1ccccc1)c1nc2ccccc2[nH]1 (stereo not given)	-7%	5.2%	-27%	?	-29%	7%	-11%	2%
Cc1ccc(NC(=O)c2c(C)oc3ncnc(N4CCCCC4)c23)cc1Cl	/	0.9%	?	3%	/	/	/	?
Cc1cccc(C)c1NC(=O)CSc1nc(C)c(CC(=O)c2ccc(Br)cc2)c(C)c1C#N	-1%	1.7%	0%	32µM*	?	12%	-2%	18µM*
CC(C)(C)n1cccc1/C=C1\C(=O)NC(=O)N(c2ccccc2)C1=O	8%	-4.4%	10%	-2%	0%	0%	-6%	4%
O=C(CCSc1nnc(-c2ccncc2)o1)Nc1ccc(F)cc1	-15%	1.3%	-12%	7%	?	-201%	-9%	-7%
Cc1nn(CC(=O)N2CCCCC2)c(=O)c2cc3occc3n12	/	-4.0%	-4%	1%	9%[46.1 µM]	/	/	?
Cc1cc(F)ccc1S(=O)(=O)N1CCCOC1CNC(=O)C(=O)NC1CCCCC1 (stereo not given)	1%	/	-2%	/	/	13%	9%	/
O=C(N/C(=C\c1ccc(Br)cc1)C(=O)N1CCOCC1)c1ccco1	0%	/	16%	/	11%[46.1 µM]	-3%	-11%	7%
CC(C)(C)c1ccc(C(=O)NC(Cc2c[nH]c3ccccc23)C(=O)OCC(=O)c2ccc(Br)cc2)cc1 (stereo not given)	/	-4.0%	3%	10µM*	/	/	/	?
O=C(c1ccc(OC2CCN(C/C=C/c3ccc(F)cc3)CC2)cc1)N1CCCCC1	-8%	/	0%	/	?	-5%	-19%	?
CCn1c(SCC(=O)Nc2ccc(Cl)cc2)nc2nc3c(cc2c1=O)CCCC3	4%	-3.4%	-23%	?	-23%	13%	0%	-8%
Cc1onc(-c2ccccc2)c1-c1n[nH]c(=S)n1-c1ccccc1Cl	-3%	0.9%	-15%	-10%	-1%	-26%	-7%	18%
CCCCOc1ccc(C2OC34CCCCC3C(C#N)(C#N)C2(C#N)C(=N)O4)cc1 (stereo not given)	1%	-12%	3%	-1%	?	-1%	12%	23%
CN(C(=O)c1ccc(-c2nn(C)c(=O)c3ccccc23)cc1)C1CCCCC1	-3%	/	22µM*	/	?	-8%	15%	?
Cc1ccnc(SC2CC(=O)N(c3ccc([N+](=O)[O-])cc3)C2=O)n1 (stereo not given)	-15%	/	6%	/	/	-4%	-16%	/
COc1ccc(Cl)cc1S(=O)(=O)N1CCC(C(=O)NCCC2=CCCCC2)CC1	-4%	/	-5%	/	-19%	-10%	-1%	-9%
Nc1ccc(C2=Nc3cccc4cccc(c34)N2)cc1	-17%	-20%	15%	3.2µM*	-35%	1%	2%	-9%
CC(=O)NC(N1CCCCC1)C(F)(F)C(F)(F)C(F)(F)C(F)F (stereo not given)	-3%	-6.5%	-5%	1%	1%	-5%	-2%	16%
CCn1cc(/C=C(\NC(=O)c2ccccc2F)C(=O)NCCCN2CCOCC2)c2ccccc21	5%	/	12%	/	/	-8%	-5%	/
O=C(COc1ccc(Br)cc1Br)NC(=S)Nc1cccc(CO)c1	-8%	-9.3%	50%[activator]	?	?	-5%	25%	-18%
COc1ccc(C2CC(C)=NN2C=O)cc1OC (stereo not given)	6%	7.7%	6%	10%	2%	1%	11%	-6%
Cc1ccc(CNC(=O)C2CCCN2S(=O)(=O)c2ccc3c(c2)C(C)(C)C(=O)N3C)cc1 (stereo not given)	2%	/	4%	/	/	0%	8%	/
COc1ccc(OC)c(NP2(=O)OCC(C)([N+](=O)[O-])CO2)c1 (stereo not given)	/	/	-20%	/	?	/	-12%	2%[46.1 µM]
Cc1[nH]n(-c2ccccc2)c(=O)c1C(C[N+](=O)[O-])c1ccc(F)cc1 (stereo not given)	-12%	-2.5%	-21%	0%	?	-13%	?	?
CCCCCCCC(=O)NC(Nc1ccc(S(N)(=O)=O)cc1)C(Cl)(Cl)Cl (stereo not given)	6%	-15%	?	1%	-28%	7%	10%	?
CCOC(=O)CSc1n[nH]c(=S)s1	0%	/	-12%	/	19%[46.1 µM]	10%	8%	15%[46.1 µM]
CC1(C)Cc2cccc(OCC(=O)O)c2O1	-12%	0.8%	10%	18%	13%	3%	3%	?
COC(=O)c1cc(OC)c(OC)cc1N	10%	-2.0%	-10%	-24%	14%&14%[46.1 µM]	9%	14%	5%
COc1ccc(CNC(=O)c2cccc(-c3ccc(C)c4ccccc34)n2)cc1	3%	2.7%	-16%	-4%	?	13%	-2%	?
Cc1cc(/C=C2\SC(=Nc3ccc(F)cc3)NC2=O)c(C)n1-c1ccc(S(N)(=O)=O)cc1	-4%	-3.8%	35µM*	?	?	?	20%	?
COc1ccc(C2C(C(C)=O)=C(O)C(=O)N2CCc2c[nH]c3ccccc23)cc1OC (stereo not given)	-9%	4.8%	-18%	3%	12%	-7%	-17%	12%
CN(CC(=O)Nc1ccc(N2CCOCC2)cc1)CC(=O)Nc1cccc(C#N)c1	-6%	-3.5%	-7%	13%	?	11%	1%	3%
Nc1nc(Nc2cccc(Cl)c2)sc1C(=O)c1ccc(F)cc1	/	-5.1%	5%	12%	/	/	/	-3%[46.1 µM]
COc1ccc(C)cc1S(=O)(=O)N1CCCC(C(=O)NC2CC2)C1 (stereo not given)	2%	/	5%	/	6%	-5%	1%	5%
CCOC(=O)c1oc2ccccc2c1N	1%	0.5%	56%[activator]	0%	17%	-16%	6%	-1%
CCOc1cccc(-c2nnc3sc(-c4cc(OC)c(OC)c(OC)c4)nn23)c1	-3%	-1.5%	-13%	14%	-5%&-5%	6%	1%	-4%
COc1ccc(C(=O)Sc2ccc(Cl)cc2)cc1OC	5%	-9.3%	-9%	?	17%	1%	-10%	-9%
Cc1ccc(OCC(=O)Nc2ccc3c(c2)nc(CCN2CCOCC2)n3C)cc1	0%	-1.5%	-8%	0%	-9%	-8%	0%	3%
O=C(Cn1c(=O)oc2cc(S(=O)(=O)N3CCCC3)ccc21)NCc1ccc(Cl)cc1	/	-6.9%	0%	7%	?	/	/	-15%[46.1 µM]
CN1C(=O)[C@H]2[C@@H](C3CC3)N3C(=O)CN(Cc4ccc(-c5ccccc5)cc4)C(=O)[C@@]3(C)[C@H]2C1=O	3%	/	-19%	/	/	-4%	4%	/
CC(C)(C)C(=O)Nc1nnc(SCC(=O)NC2CCCC2)s1	0%	/	-15%	/	6%[46.1 µM]	3%	13%	-1%

The list goes on.
SMILES	SARS PLP yeast	Cruzain Triton	StopGo reporter	Cruzain inh noDet	Marburg entry inh	NS1 inh	RE007 growth inh	Lassa entry inh
O=C1/C(=C/C=C/c2ccccc2)Oc2c1ccc(O)c2CN1CCN(CCO)CC1	2%	/	-24%	/	/	19%	-18%	/
CC(NC(=O)C1CCC(CNC(=O)[C@@H]2Cc3ccccc3CN2)CC1)c1ccccc1 (stereo not given in full)	-3%	/	0%	/	/	-4%	-1%	/
C/C(=N\NC(=S)NC1CCCCC1)c1ccc(C)o1	-7%	/	2%	/	?	/	-13%	-30%[46.1 µM]
C/C(Cc1ccccc1)=N\NC(=O)CNC(=O)c1ccccc1Br	3%	0.3%	-6%	2%	-35%	2%	8%	-12%
Cc1c(C)c2cc3c(C)coc3cc2oc1=O	-2%	/	4%	/	/	0%	1%	/
Cc1ccn2cc(-c3ccc(NS(=O)(=O)c4ccccc4)cc3)nc2c1	17%	-6.2%	11%	12%	?	3%	-7%	10%
Nc1c(C(=O)NCc2ccc3c(c2)OCO3)nnn1-c1ccc(OC(F)(F)F)cc1	8%	-5.3%	-15%	-5%	?	0%	23%	12%
O=c1oc2ccccc2cc1-c1cn(-c2ccccc2)c(=S)[nH]1	-5%	-2.6%	13µM*	7%	?	17%	-10%	0.89µM*
COc1ccccc1N(CC(=O)Nc1ccc(F)c(F)c1)S(C)(=O)=O	6%	3.4%	-2%	-3%	9%	-3%	-5%	1%
CCCCS(=O)(=O)N1CCC(C(=O)Oc2ccccc2OC)CC1	-4%	/	-22%	/	/	0%	7%	/
O=C(N/N=C/c1ccccn1)C1CC1	5%	3.4%	9%	3%	5%	7%	-2%	1%
O=C(Nc1ccc(Cl)c(S(=O)(=O)N2CCCCC2)c1)c1ccncc1	5µM*	/	-34%	/	?	/	?	-27%
